LANA-H2A inh: blocks KSHV LANA binding to histone H2A/H2B. cell-free LANA-H2A/H2B peptide, fluorescence polarization. Q9QR71. inhibition, % (test concentration not listed). 320,000 tested, 0.6% active; in the data active = inhibition mostly above about 10%, no sharp cut-off; inactive = mostly below about 6.7%;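 note: stock transfer was 7.5 nL into about 10 µL; 0% = median of vehicle wells and 100% = median of positive control wells; one replicate is shown; the record names a cut of 25% in any replicate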
UCH37 inh: inhibitors of human deubiquitinating enzyme UCH37; Q9Y5K5; purified proteasome/UCH37, Ub-AMC cleavage fluorescence; inhibition, % (test concentration not listed); 330,000 tested, 0.33% active;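 active = mean of two replicates above 20%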;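 note: 0% = compound-free wells with enzyme and 100% = wells lacking proteasome; stock transfer was 100 nL into about 20 µL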
Target sequence (Q9Y5K5 whole entry, looked up): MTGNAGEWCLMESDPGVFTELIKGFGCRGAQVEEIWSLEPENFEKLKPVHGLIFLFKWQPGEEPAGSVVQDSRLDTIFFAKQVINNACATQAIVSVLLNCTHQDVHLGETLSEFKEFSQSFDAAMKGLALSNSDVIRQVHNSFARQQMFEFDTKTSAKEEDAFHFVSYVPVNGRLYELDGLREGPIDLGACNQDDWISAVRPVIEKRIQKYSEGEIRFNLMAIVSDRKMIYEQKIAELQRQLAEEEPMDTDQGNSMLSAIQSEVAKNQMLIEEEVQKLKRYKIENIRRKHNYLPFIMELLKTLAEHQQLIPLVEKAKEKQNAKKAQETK
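Signal – fluorescence, ex 355 nm, em 460 nm · System – Proteasome-bound UCH37 · Input – 0.15 nM proteasome as dispensed · Timing – 30 min preincubation with enzyme, 25 min cleavage at room temperature · Read-out basis – percent inhibition of cleavage signal versus uninhibited and no-proteasome wells · Medium – Tris-HCl pH 7.4 with ATP-MgCl2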
Beta apoptosis: beta cell apoptosis inhibition; INS-1E cytokine-induced death, ATP luminescence, 48 h; percent of positive-control rescue, neutral wells zero; protection from apoptosis, % (test concentration not listed); 300,000 tested, 0.8% active; AID 435005;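 active = all replicates at 75% or more, or half of them and the mean; inconclusive = half reach 75% but not the mean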;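 note: 0% = cytokine-treated negative control wells and 100% = positive control rescue; higher means more ATP so stronger rescue from cytokine killing; wells of about 40 µL received 100 nL stock; the first replicate is given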
T cruzi repl: T. cruzi replication inhibition. inhibition, % (concentration not given with the values). T. cruzi beta-gal in NIH3T3, luminescence, 90 h. 300,000 tested, 1.4% active;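 active = mean inhibition across valid replicates above about 55%, limit read from the data; inconclusive = mean below that limit but half or more replicates reach it; inactive = mean below it, under half of replicates reach it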;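 note: signal also drops with host cell toxicity which is not excluded here; 0% = plate median of DMSO wells and 100% = zero luminescence signal; higher percent means less beta-gal luminescence so fewer parasites; stock transfer was 50 nL into about 50 µL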
RanGTP-Impb inh: inhibitors of RanGTP-importin-beta interaction, primary screen, biochemical, FRET, CFP-Ran, YFP-importin-beta, homogeneous; cell-free CFP-Ran/YFP-importin-beta FRET ratio; inhibition, % (concentration not given with the values); 300,000 tested, 1.1% active;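 active = most replicates above 15%; inconclusive = exactly half above 15%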;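 note: 0% = DMSO wells and 100% = Ran loaded with GDP instead of GTP; wells of about 40 µL received 100 nL stock; the first replicate is given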
Bfl-1 A1 inh: inhibitors of the anti-apoptotic protein A1, read as caspase activation | MEF A1-2A-BIM cells, Caspase-Glo 3/7 luminescence, 3 h; percent of clofoctol response, vehicle zero | caspase activation, % (concentration not given with the values) | 330,000 tested, 0.066% active | AID 2462;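 active = over half of replicate activation scores above 10%, or exactly half above 10 with the replicate mean above 10; inconclusive = replicate mean below 10 yet half the replicates above 10; inactive = over half of replicates below 10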;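 note: wells of about 30 µL received 50 nL stock; many hits fall short of the cut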
B2AR ag: activates human beta-2 adrenergic receptor causing internalization | AID 504454 | 340,000 tested, 0.43% active | response, % (test concentration not listed) | Am2.2-beta2AR cells, FAP receptor internalization, flow cytometry; reference of the scale not given here;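 active = response above a set limit, near 3 SD of response in nonfluorescent compounds, cut at about 42% in these data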;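 note: stock transfer was 100 nL into about 11 µL; a reference agonist was the positive control; negative values mostly stem from fluorescent compounds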
Target sequence (P07550 whole entry, looked up): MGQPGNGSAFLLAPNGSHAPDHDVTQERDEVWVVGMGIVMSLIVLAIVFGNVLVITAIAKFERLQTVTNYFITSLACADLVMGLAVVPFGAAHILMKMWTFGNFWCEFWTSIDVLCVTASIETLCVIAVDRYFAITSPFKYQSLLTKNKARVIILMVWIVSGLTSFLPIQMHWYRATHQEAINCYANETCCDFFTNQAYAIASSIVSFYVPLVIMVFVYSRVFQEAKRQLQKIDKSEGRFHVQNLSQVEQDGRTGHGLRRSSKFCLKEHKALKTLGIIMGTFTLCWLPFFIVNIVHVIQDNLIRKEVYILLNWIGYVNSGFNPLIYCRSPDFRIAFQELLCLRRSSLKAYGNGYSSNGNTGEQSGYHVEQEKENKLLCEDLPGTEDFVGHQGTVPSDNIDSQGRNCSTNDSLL
Calb FLC: C. albicans growth modulation with fluconazole; C. albicans CaCi-2 (fluconazole-resistant clinical isolate) + fluconazole, Alamar Blue growth, 48 h; growth inhibition, % (test concentration not listed); 300,000 tested, 0.57% active;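 active = most replicates above 75%; inconclusive = exactly half above 75%; inactive = most below 75%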;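 note: all wells also contain fluconazole at 8 µg/ml as a sub-toxic cotreatment; 0% = median of DMSO wells and 100% = median of geldanamycin control wells; wells of about 8 µL received 7.5 nL stock; the first replicate is given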
* marks the source's active call; other numbers are inactive results; ? = inconclusive; / = no result given.

SMILES	LANA-H2A inh	UCH37 inh	Beta apoptosis	T cruzi repl	RanGTP-Impb inh	Bfl-1 A1 inh	B2AR ag	Calb FLC
Cc1cc2ncn(C(=O)c3c(-c4ccccc4)noc3C)c2cc1C	4.4	2.3	-5	0	0.5	-0.7	-6	17
CC(=O)NCCNC(=O)c1oc2ccccc2c1CSc1ncn[nH]1	-4.3	5.1	-7	-14	5.1	0.6	1	2
O=C(c1ccccc1Sc1ccc([N+](=O)[O-])cc1Cl)N1CCOCC1	3.9	5.7	-8	22	-3.3	0.7	-4	6
O=C(NCc1ccccc1)C1CCCN(c2cnccn2)C1 (stereo not given)	1.4	-15	5	-2	2.7	-0.2	5	-5
CCOC(=O)C1CCN(C2CCN(C(=O)c3oc4c(F)cccc4c3C)CC2)CC1	1.1	-1.7	3	27	2.6	-0.5	9	-5
CCC(C)c1ccc(OCc2ccc(C(=O)OC)o2)cc1 (stereo not given)	-3.9	4.5	-3	-5	0.3	-0.1	0	4
CCC(=O)NC(c1ccc(OC)c(OC)c1)c1cc(Cl)c2cccnc2c1O (stereo not given)	/	1.2	/	62*	-2.6	/	5	3
Cc1ccc(C(=O)NC(C)c2ccc(-n3ccnc3)cc2)o1 (stereo not given)	-0.6	-0.4	-1	1	0.8	0.1	34	6
CC(=O)Nc1ccc(S(=O)(=O)Nc2cccc(NC(=O)C(C)(C)C)c2)cc1	0.6	0.8	4	1	-2.5	0.4	1	2
CN(CC(=O)Nc1ccc(Cl)cc1)C(=O)CCc1nc2sc3c(c2c(=O)[nH]1)CCCC3	-7.9	-5.2	3	12	4.1	-1.0	3	-1
COC(=O)[C@@H](NC(=O)NCc1ccccc1F)C(C)C	0.0	0.3	-9	0	1.3	-0.6	7	7
Cc1ccc(NC2CCCN(C(=O)c3ccnc(Cl)c3)C2)cc1C (stereo not given)	3.1	5.3	-6	8	3.0	-0.4	2	33
OC(COCc1ccccc1)CN1CCCC1 (stereo not given)	-5.0	1.4	-8	?	-1.5	0.0	-2	-3
CC1CCC(NC(=O)CN(C)S(=O)(=O)c2cccc3cccnc23)CC1 (stereo not given)	5.6	-0.8	-6	-3	-3.1	0.0	8	-12
COc1ccc(NC(=O)COC(C)=O)cc1OC	-3.6	7.2	2	-2	-0.6	1.0	-1	2
Cc1cc(NC(=O)c2ccc(C#N)cc2)n(-c2ccccn2)n1	-0.4	0.3	-1	3	-3.4	-0.1	4	8
Oc1cccnc1CCc1ccccc1	-8.6	-4.7	-8	7	1.0	0.7	-4	-4
COc1ccc(F)cc1S(=O)(=O)Nc1ccc(C)cc1	0.1	1.2	2	-15	2.9	0.4	2	-1
CS(=O)(=O)c1ccc(NC(=O)CCN2C(=O)C3CC=CCC3C2=O)cc1 (stereo not given)	2.8	1.7	-5	6	2.3	0.2	6	10
COc1ccc(N2CCN(S(=O)(=O)CCNC(=O)C3CCCCC3)CC2)cc1	-4.0	-0.1	/	-4	1.0	-0.8	12	-16
Cc1ccccc1NC(=O)c1sc(NC(=O)C2CC2)nc1C	-2.3	2.4	-2	-12	-4.9	0.0	-8	11
CCOC(=O)Nc1cccc(NC(=O)c2cc(OC)cc(OC)c2)c1	-2.0	4.9	6	8	-5.6	-5.8	1	17
COc1ccc(N2C(=NC(=O)C3CCCCC3)SC3CS(=O)(=O)CC32)c(OC)c1 (stereo not given)	-3.9	3.5	-2	16	-1.1	0.0	-4	7
O=C(O)COc1ccc(NC(=O)c2ccc(NC(=O)c3ccco3)cc2)cc1	-4.3	1.9	-5	-13	-1.2	-0.2	-10	29
O=C(CN1CCN(c2cccc(C(F)(F)F)c2)CC1)N(C1CC1)C1CCS(=O)(=O)C1 (stereo not given)	-0.9	4.0	-6	/	/	0.8	2	/
COc1cc(N)n(S(=O)(=O)c2ccc(C)cc2)n1	2.6	0.3	-6	-23	0.3	?	-8	-4
CCCC(=O)N(CCN1CCOCC1)c1nc2c(OC)ccc(C)c2s1	-2.7	5.7	0	-1	1.1	1.0	-17	0
COc1ccc(-n2nnnc2SCC(=O)Nc2nnc(C)s2)cc1OC	12	-1.1	-5	-11	0.6	0.5	8	-4
Cc1cc(C)c(S(=O)(=O)NCCc2cc3ccc(C)c(C)c3[nH]c2=O)c(C)c1	-0.2	-4.4	-7	-6	0.8	0.3	11	9
COC(=O)C1=C[C@@H](C(=O)OC)[C@@H]2C3=C(C(=O)[C@]2(CC(C)C)NC(=O)c2ccccc2)[C@H](C)n2c(=O)n(-c4ccccc4)c(=O)n2[C@@H]3C1	4.5	-0.4	-5	2	?	-0.1	14	0
C=CCNC(=O)N1CCC(c2nc3ccccc3s2)CC1	1.6	-0.2	1	-11	-1.7	2.1	-7	4
CCOc1ccccc1Oc1c(C)oc2cc(OC(=O)N3CCOCC3)ccc2c1=O	-1.3	5.5	/	2	-2.3	0.2	10	-8
CCC1CCCCN1CCCNC(=O)c1ccc2c(c1)NC(=O)CN2C (stereo not given)	1.0	/	0	-12	5.3	1.8	11	4
COc1ccc(CNC(=O)CCC(=O)N2CC(C)Oc3ccccc32)cc1 (stereo not given)	-2.5	1.5	-10	-4	2.9	0.6	7	1
CN1C(=O)[C@H]2[C@@H](C3CC3)N3C(=O)CN(Cc4ccccn4)C(=O)[C@@]3(Cc3ccccc3)[C@H]2C1=O	4.8	5.1	3	6	-3.1	0.8	-1	-5
CSCCC(NC(=O)c1ccc(Cl)cc1)C(=O)OCC(=O)Nc1ccc(C#N)cc1 (stereo not given)	0.8	3.7	-3	-12	-0.3	-0.7	3	2
O=C(COC(=O)C1CC1)NCc1ccc(Cl)cc1Cl	1.0	-1.4	-4	/	/	1.4	0	/
Oc1ccc2ccccc2c1C=NCc1cn2ccsc2n1	15	6.9	-8	3	-2.7	-0.1	6	-7
O=C(Nc1ccc(Br)cc1Br)C1CC(=O)N(Cc2ccccc2)C1 (stereo not given)	-7.7	3.4	0	0	-1.7	0.3	-7	-15
CCC(C)N(C(=O)Cn1nc(C)c([N+](=O)[O-])c1C)C1CCS(=O)(=O)C1 (stereo not given)	-1.9	4.8	-3	-3	1.2	0.0	8	3
O=C(c1ccc(F)cc1)N1CCN(c2ccccn2)CC1	-7.8	4.0	0	-13	-4.5	-0.6	-3	18
CC1(C)CC(=O)c2cnc(N3CCc4ccccc4C3)nc2C1	-1.8	3.5	/	15	0.1	-0.4	9	2
Cc1cn2c(nc1=O)OC1CC2OC1CO (stereo not given)	-1.7	3.4	-5	-8	-0.1	-0.1	-3	?
O=C(COc1ccccc1)Nc1nonc1NC(=O)COc1ccccc1	-2.9	0.9	-7	12	?	-3.0	-3	-15
O=C(c1ccc(N2CCC3(CC2)OCCO3)c([N+](=O)[O-])c1)N1CCOCC1	/	6.0	-2	-14	-0.6	0.1	-1	?
CCOc1ccccc1NC(=S)N(CCCN1CCOCC1)Cc1cn(C)c2ccccc12	-8.2	4.2	0	14	8.8	0.7	7	11
CCCC(=O)c1cc(F)c(N2CCN(CCC#N)CC2)cc1C	-3.7	0.6	0	15	-2.4	-0.2	-3	-7
O=C(Nc1cccn(Cc2c(F)cccc2Cl)c1=O)NC1CCCCC1	-1.5	-1.5	13	25	3.0	-0.7	-24	26
CC1Sc2ccc(S(=O)(=O)NCCc3ccc(Cl)cc3)cc2NC1=O (stereo not given)	-0.7	1.4	1	2	-3.0	-1.7	2	-5
COc1ccc(C(=O)Nc2ccc3nc(C)sc3c2)cc1OC	6.1	3.9	5	-11	3.3	-1.3	5	1
CCCCCCn1c(C(C)O)nc2ccccc21 (stereo not given)	1.3	4.6	0	2	1.3	1.3	-6	7
Cc1ccc(N(C)C(=O)C2CCCN2S(=O)(=O)c2cccc3nsnc23)cc1 (stereo not given)	4.6	5.9	-6	-2	3.0	0.1	4	34
CC1(c2ccc(Cl)c(Cl)c2)NC(=S)N2C1NC(=S)N2c1ccccc1 (stereo not given)	1.0	/	-4	-5	-3.0	-0.3	6	2
CCc1ccc(NC(=O)N2CCC(c3ccccc3)C2)cc1 (stereo not given)	-4.4	1.1	4	5	2.6	-1.5	0	-6
CN(C(=O)c1ccccc1[N+](=O)[O-])c1ccccc1C(=O)NCc1ccccc1	0.4	-0.8	0	-1	2.6	-0.6	-4	0
O=S(=O)(NCCNS(=O)(=O)c1cccs1)c1cccs1	-4.8	-0.2	-2	0	-1.4	0.2	-3	2
O=C(CN1CCc2ccccc21)Nc1ccc2c(c1)OCO2	-0.3	1.2	-4	-13	2.8	0.6	-4	1
CC1CN(c2nnc(-c3ccccc3)c3ccccc23)CC(C)O1 (stereo not given)	0.2	3.9	/	16	-4.6	0.7	-10	44
O=C(Nc1ccccc1)c1ccc(NCCN2C(=O)CCC2=O)c([N+](=O)[O-])c1	1.7	0.5	-1	7	-2.5	-0.1	-10	-13
Cc1ccc(S(=O)(=O)/N=C(/Nc2ccc(F)cc2F)c2ccc(F)cc2)cc1	-0.7	-0.5	2	-11	-1.8	-0.5	-7	-13
(cont.)
SMILES	LANA-H2A inh	UCH37 inh	Beta apoptosis	T cruzi repl	RanGTP-Impb inh	Bfl-1 A1 inh	B2AR ag	Calb FLC
CCCCNC(=O)c1cn(CC)c2cc(N3CCN(C(=O)c4ccco4)CC3)c(F)cc2c1=O	1.1	-124	27	17	3.5	0.6	14	/
Clc1ccc(/C=N\Nc2ccccc2)cc1	0.1	/	-13	15	4.7	-4.8	-1	-1
CCS(=O)(=O)Nc1cccc(C2=NN(S(=O)(=O)c3ccccc3)C(c3cccs3)C2)c1 (stereo not given)	7.8	-0.9	3	-24	-1.5	0.8	11	-2
CCOC(=O)c1c(C)[nH]c(C)c1S(=O)(=O)N(C)CC(=O)Nc1ccccc1	5.4	0.3	3	-9	1.9	1.4	-1	12
O=C1CCNc2c(Cl)cc(Cl)cc21	1.4	-7.1	/	-17	-35	0.7	-1	9
O=C(Cc1cccs1)N1CCC(c2nc3c(nnn3Cc3ccc(F)cc3)c(=O)[nH]2)CC1	0.1	0.2	7	-9	3.1	1.7	2	19
CCC(C(=O)OCC(=O)Nc1ccc2[nH]c(=O)[nH]c2c1)c1ccccc1 (stereo not given)	1.5	4.1	/	-15	-3.7	1.4	-5	-8
CC(C)(C)Cc1nnc(NC(=O)c2cc(-c3ccccc3)nc3ccccc23)s1	-0.7	3.8	4	-9	0.6	0.3	3	13
COc1ccc(-c2coc3c(C)c4oc(=O)c(CC(=O)O)c(C)c4cc23)cc1	/	-1.0	/	3	12	/	19	31
Cc1cc2ncc(-c3ccc(Cl)cc3)c(N)n2n1	2.7	7.3	4	3	1.3	-1.0	-12	41
Cc1cccc(NC(=S)NC(C)C(c2cccs2)N2CCN(C)CC2)c1C (stereo not given)	-2.3	2.6	-21	-1	0.4	0.7	-3	-10

Screens: PubChem BioAssay, several laboratories
